High-throughput results as filed in PubChem BioAssay.
RecA intein inh: Mtb RecA intein splicing inhibition; P9WHJ3; cell-free RecA intein splicing, fluorescence; inhibition, %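 (about 9 µM by stock and volumes)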; 290,000 compounds, 0.75% hits; AID 2221; in the data active = inhibition above about 30%; inconclusive = no clear call, values can overlap the other calls;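 also: 0% = vehicle wells and 100% = reference inhibitor control wells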
Target sequence (P9WHJ3 whole entry, looked up): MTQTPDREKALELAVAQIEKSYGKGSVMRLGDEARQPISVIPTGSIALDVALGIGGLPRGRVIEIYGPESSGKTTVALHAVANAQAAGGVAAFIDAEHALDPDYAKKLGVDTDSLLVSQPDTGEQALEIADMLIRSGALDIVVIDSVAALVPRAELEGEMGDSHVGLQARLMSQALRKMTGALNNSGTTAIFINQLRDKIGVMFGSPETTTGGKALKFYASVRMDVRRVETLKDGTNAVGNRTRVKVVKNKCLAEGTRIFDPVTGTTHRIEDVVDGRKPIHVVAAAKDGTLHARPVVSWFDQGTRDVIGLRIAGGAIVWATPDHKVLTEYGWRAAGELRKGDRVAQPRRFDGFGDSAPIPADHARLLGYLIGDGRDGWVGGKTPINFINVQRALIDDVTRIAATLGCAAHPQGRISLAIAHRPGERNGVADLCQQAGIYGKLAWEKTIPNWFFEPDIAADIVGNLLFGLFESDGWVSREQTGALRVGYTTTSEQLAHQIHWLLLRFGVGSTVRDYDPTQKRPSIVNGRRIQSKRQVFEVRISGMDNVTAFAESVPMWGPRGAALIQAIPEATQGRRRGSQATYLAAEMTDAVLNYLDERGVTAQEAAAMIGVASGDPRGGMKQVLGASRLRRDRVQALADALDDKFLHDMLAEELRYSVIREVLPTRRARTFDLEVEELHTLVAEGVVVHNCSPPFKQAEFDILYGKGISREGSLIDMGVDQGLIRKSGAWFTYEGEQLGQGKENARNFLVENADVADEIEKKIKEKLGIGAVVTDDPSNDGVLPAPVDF
Mtb H37Rv: M. tuberculosis H37Rv growth inhibitors, H37Rv strain (AID 1626); M. tuberculosis H37Rv growth inhibition; higher % means a stronger effect; one-dose inhibition, % at 10 µM; IC50 in µM for titrated hits; 220,000 compounds, 0.95% hits;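 active = confirmed in a dose series; inconclusive = inhibition above 80% but not taken into the dose series; inactive = below 80% or under 30% at every dose of the series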;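 also: bacteria incubated seven days before Alamar blue readout; 0% = bacteria only wells and 100% = bacteria with antibiotic wells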
YopH PTP inh: YopH (Yersinia) phosphatase inhibition; fluorescence Ex485/Em525; inhibition, %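 (about 10 µM by stock and volumes)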; 140,000 compounds, 0.16% hits; AID 898;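 active = inhibition of 50% or more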;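 also: controls were vehicle for no effect and minimum signal wells for full effect; inactives centre near -20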
Mtb bLac sens: beta-lactam sensitization of Mtb H37Rv. 330,000 compounds, 0.27% hits. inhibition, % at 25 µM. M. tuberculosis H37Rv growth with meropenem, percent inhibition; hits of this screen are not shown here;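 active = about 74% or more and at least 40 points above the plate without the antibiotic, then above 30% in a dose series; inconclusive = first-round hits that could not be retested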;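 also: growth measured after seven days incubation then overnight dye step; 0% = bacteria only wells and 100% = bacteria with antibiotic; twin plates without the antibiotic show which effects depend on it; some results filed as inactive read as strong as hits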
Arbovirus anti: arbovirus infection inhibition; arbovirus infection cell-based antiviral screen; inhibition, % at 10 µM; 200,000 compounds, 0.37% hits;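 active = inhibition from about 30%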;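 also: bluetongue infection of BSR cells; cell survival read as ATP light after 72 h; 0% = infected wells without compound and 100% = uninfected wells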
Arbovirus anti repeat: recorded beside Arbovirus anti, whose call it bears; inhibition, %; measured here: 10K subset replicate screen; many hits read low in the repeat;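 first of two repeat runs on a subset; 0% = infected and 100% = uninfected wells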
Numbers without * were called inactive; ? = inconclusive; · = no result given. An excerpt, so the mix of outcomes need not match the whole.

The first 4 records, to show the layout:
SMILES	RecA intein inh	Mtb H37Rv	YopH PTP inh	Mtb bLac sens	Arbovirus anti	others
FC(F)(F)c1cc(C(F)(F)F)c2ccc(Oc3ccccc3)nc2n1	1.4	-6%	-26	3	0
CC1=CCCC(C)(C)C1/C=C/C(C)=N/NC(=O)c1ccncc1 (centres undefined)	0.3	?	·	98	-3
Cc1cc(C)c(/C=N/NC(N)=O)c(C)c1/C=N/NC(N)=O	2.0	-1%	-31	-3	-3
O=C(Nc1nnc(SCc2ccccc2)s1)C1=COCCO1	4.3	·	·	4	·

The listing, from the start:
SMILES	RecA intein inh	Mtb H37Rv	YopH PTP inh	Mtb bLac sens	Arbovirus anti	others
FC(F)(F)c1cc(C(F)(F)F)c2ccc(Oc3ccccc3)nc2n1	1.4	-6%	-26	3	0
CC1=CCCC(C)(C)C1/C=C/C(C)=N/NC(=O)c1ccncc1 (centres undefined)	0.3	?	·	98	-3
Cc1cc(C)c(/C=N/NC(N)=O)c(C)c1/C=N/NC(N)=O	2.0	-1%	-31	-3	-3
O=C(Nc1nnc(SCc2ccccc2)s1)C1=COCCO1	4.3	·	·	4	·
Cc1cc(C)c2[nH]c(=O)c(=O)[nH]c2c1	-2.1	1%	11	-16	4
COc1ccc(NS(=O)(=O)c2cc(NC(=O)CNC(=O)c3ccc(C)s3)ccc2Cl)cc1	4.0	1%	-9	5	13
OCC1(Cc2ccccc2F)CCCN(CC2CCCCC2)C1 (centres undefined)	0.6	·	·	6	·
Cc1ccc(S(=O)(=O)N/N=C/c2cccc(OC3CSC3)c2)cc1	4.0	1%	-43	5	-11
COc1ccccc1C(=O)NC(=O)COC(=O)CCOc1ccc(C)cc1	1.5	·	·	-2	·
CCc1ccc(CNC(=O)CCn2nc(C)c3c(C)n(-c4ccccc4)nc3c2=O)cc1	-3.6	·	·	-3	·
CCOc1ccc(/C=N/NC(=O)CC(=O)Nc2ccc(Cl)c(Cl)c2)cc1	1.4	8%	-20	2	0
CCC1=C2CC[C@H]3C(=O)N(c4ccccc4)C(=O)[C@H]3[C@H]2[C@@]2(C)C(=NCC3CC3)OC(=O)N2C1=O	0.8	-9%	·	2	·
CC(=O)Nc1ccc(S(=O)(=O)N(Cc2ccco2)CC2CCCO2)cc1 (centres undefined)	-0.7	·	-14	-4	-1
CC(=O)Nc1ccc(S(=O)(=O)Nc2nc3c(s2)CCCC3)cc1	-1.2	-8%	-1	13	7	Arbovirus anti repeat=4
COc1cc(/C=N/NC(=O)Cc2csc(C)n2)ccc1OCC(C)C	0.5	-7%	·	3	8
CCOC(=O)c1nn(-c2ccc(F)cc2)c(=O)cc1OCC(=O)Nc1ccc(F)c(F)c1	-0.2	·	·	-9	·
COc1ccc2c3c(cccc13)OC2=O	-2.7	·	·	82	·
Nc1ccc(-c2cnc3ccccc3n2)cc1	-4.7	·	·	23	·
COc1cc(/C=C/C2=NC(=O)C(C)(C)O2)ccc1O	-1.0	4%	-12	2	2	Arbovirus anti repeat=4
CC(=O)c1cn(C(=O)c2ccc(Cl)cc2)c2ccccc12	0.7	·	·	1	·
CC(C)CNC(=O)c1c(N)n(Cc2ccco2)c2nc3ccccc3nc12	-197	0%	6	28	11
COC(=O)N/N=C/c1cccs1	4.5	-8%	·	0	3
Cn1c(SCC(=O)N2CCCC2)nc2ccccc2c1=O	2.0	-2%	-42	?	4
Cc1nonc1C(=O)N/N=C/c1cccc(O)c1	-2.3	-5%	-4	-2	0
O=C(Nc1cccc(S(=O)(=O)N2CCOCC2)c1)c1ccccn1	2.7	-5%	·	2	·
Cc1ccc(Cn2ccc(NC(=O)c3cc(CC(C)C)on3)n2)cc1	5.8	?	-31	93	3
CC(C)(C)OC(=O)NCCc1nnc(SCc2ccccc2Cl)o1	1.5	7%	-34	1	6
CCN(CC)CCn1c2c(c(SCC(=O)Nc3ccc4c(c3)OCCO4)nc1=O)CCC2	0.4	·	·	-6	·
COc1ccc(S(=O)(=O)N2CCCC2)cc1C(=O)N1CCCCC1	-0.2	·	·	-8	·
COC(=O)c1cc(=O)c2cccc(OC)c2[nH]1	-11	-12%	·	32	·
O=[N+]([O-])c1ccccc1CN1CC=C(c2ccc(F)cc2)CC1	0.7	·	·	-2	·
Cc1ccccc1OCC(=O)Nn1c(COc2ccccc2)nc2ccccc2c1=O	3.3	-5%	-9	-2	0
COC(=O)c1cc(C(=O)Nc2nc3ccccc3[nH]2)cc([N+](=O)[O-])c1	-2.3	·	·	8	·
COc1cccc(CNCc2ccc(OC)c3ccccc23)c1OC	1.7	·	·	-2	·
O=C(COc1ccc(Br)cc1)N/N=C1/SCC(=O)N1Cc1ccco1	-2.1	-5%	·	3	9
COc1ccc(C2C(C#N)=C(N)N(c3sc4c(c3C#N)CCCC4)C3=C2C(=O)CC(C)(C)C3)cc1 (centres undefined)	-1.2	24%	-14	52	-2
CCCC(=O)Nc1nnc(SCC(=O)N2CCCCC2)s1	-0.3	·	·	8	·
NS(=O)(=O)c1cccc(NC(=O)CN2CCc3ccccc32)c1	4.8	0%	·	-8	-6
COc1ccc(C2=NN(C)C(=NCc3ccccc3)SC2)cc1	1.5	-3%	-106	70	18
O=C(c1cc([N+](=O)[O-])cc([N+](=O)[O-])c1)N(c1ccccn1)c1ccccn1	-2.6	-8%	-11	11	-2
O=C(Nc1ccc(Cl)cc1)C(Cl)C(=O)c1ccccc1 (centres undefined)	46*	·	·	2	·
CCOc1ncccc1C(=O)Nc1ccc2nc(C)sc2c1	-0.7	·	·	5	·
CCC[n+]1c(C)sc2c3c(ccc21)CCCC3	12	6%	·	-10	1
CCOC(=O)NC1(NC(C)C)Oc2ccccc2O1	-2.7	4%	-19	11	-8
COc1cc(C(=O)Nc2cccc(NC(=O)c3cccs3)c2)cc(OC)c1OC	0.1	·	·	-2	·
O=C(Oc1c(Br)cc(C(=S)N2CCOCC2)cc1Br)c1ccc(Cl)cc1	1.1	·	-34	68	1
O=C(CNCc1ccco1)Nc1ccc(Oc2ccccc2)cc1	1.5	>100µM*	·	80	-11
Cc1ccc(C(C)C)c(OCC(=O)N/N=C/C2CCCCC2)c1	3.0	15%	·	4	5
CCOC(=O)c1cnc2cc(Cl)c(OC)cc2c1NCC1CCCO1 (centres undefined)	·	22%	-35	68	-3
CCc1ccc(N2CC(C(=O)Nc3ccc(S(=O)(=O)Nc4ncccn4)cc3)CC2=O)cc1 (centres undefined)	0.8	·	·	5	·
CC(NS(=O)(=O)CCNC(=O)c1ccccc1)c1ccccc1 (centres undefined)	1.0	·	·	-9	·
CC(C)OCCCNC1=C(Cl)C(=O)c2ccccc2C1=O	·	15%	·	-5	·
c1ccc(OCc2cc(-c3ccccc3)no2)cc1	11	10%	·	1	-7
Cc1ccc(C2C(C#N)=C(N)Oc3n[nH]c(-c4cccnc4)c32)o1 (centres undefined)	53*	-7%	·	-6	2
O=C(NCc1ccccn1)C(F)(F)C(F)(F)C(=O)NCc1ccccn1	-1.9	0%	17	-7	-2
O=C1C(Cc2cccc([N+](=O)[O-])c2)SC(=Nc2ccccc2)N1c1ccccc1 (centres undefined)	2.5	7%	-15	2	28
CCCN1CCN(C(=S)NCc2ccc(Cl)cc2)CC1	2.7	1%	·	-4	0
COc1ccccc1N1CCN(S(=O)(=O)c2cn(C)cn2)CC1	-1.0	·	·	3	·
CC(C)CCNC1c2ccccc2C(=O)N1Cc1ccccc1 (centres undefined)	4.1	·	·	2	·
Cc1cc(C(=O)NC2CCCc3c2cnn3-c2cccc(C)c2C)c(C)o1 (centres undefined)	9.2	·	·	-9	·
(continued)
SMILES	RecA intein inh	Mtb H37Rv	YopH PTP inh	Mtb bLac sens	Arbovirus anti	others
CC(c1ccon1)N(C)Cc1cn(Cc2ccccc2)nc1-c1ccc2c(c1)OCO2 (centres undefined)	3.9	5%	·	-4	3
COc1ccc(CCNC(=O)c2ccccc2NC(=O)C2=C(C)OCCS2)c(OC)c1	-0.3	·	·	8	·
COc1ccc(C(=O)Nc2ccc(S(=O)(=O)Nc3cc(C)nc(C)n3)cc2)cc1OC	-2.3	-4%	·	0	-6
CC(C)N(CCCNC(=O)C1CCN(C(=O)c2cc3sccc3n2C)CC1)Cc1ccccc1	0.5	·	·	-3	·
Cc1cc(Cl)ccc1N1C(=O)CC(NNC(=O)c2cccnc2)C1=O (centres undefined)	2.0	6%	-9	-7	3
OCC1(Cc2ccc(Cl)cc2)CCN(CC2CC=CCC2)CC1 (centres undefined)	1.0	9%	·	5	-1
O=C(Nc1cccc([N+](=O)[O-])c1)c1cc2ccccc2cc1O	1.5	10%	·	-2	·
CN1CCc2nc(SC(C(=O)O)c3ccccc3)c(C#N)c(-c3cccs3)c2C1 (centres undefined)	35*	-9%	·	-5	·
O=C(N/N=C/c1cccc([N+](=O)[O-])c1)c1ccncc1	-1.7	?	·	98	·
COc1cccc(C2=NOC(C(=O)N3CCN(c4ccccc4)CC3)C2)c1OC (centres undefined)	-0.5	7%	-11	-6	3	Arbovirus anti repeat=14
Cc1cccnc1NC(=O)CNC(=O)C12CC3CC(CC(C3)C1)C2	2.2	·	·	-3	·
O=C1CS/C(=C/C(=O)c2cccc(Cl)c2)N1	3.4	?	·	53	4
COc1ccc(CC(=O)Nc2cccc(/C(C)=N/NC(=O)C3(C)CC3(Br)Br)c2)cc1 (centres undefined)	4.9	·	·	6	·
COc1ccc(CCNC(=O)c2cnn3cccnc23)cc1OC	1.6	-4%	-22	-10	6
CCOC(=O)c1ccc(N(CC(=O)NC2CCCC2)C(=O)CNC(=O)c2ccco2)cc1	3.9	5%	-1	0	1
COC(=O)c1cccc(NC(=O)CSc2nc3cccnc3n2C)c1	·	0%	-18	-9	1
COc1ccc(-c2cc3c(=O)n(CC(=O)Nc4cccc(Cl)c4)nc(C)n3n2)cc1	-0.1	·	·	2	·
CC(C)CC1(C(=O)O)NC(c2ccccc2O)C2C(=O)N(C(C)C)C(=O)C21 (centres undefined)	-0.2	-10%	-34	0	-6	Arbovirus anti repeat=2
CCCC(=O)Nc1ccc(C(=O)NCCCn2ccnc2)cc1	-0.8	1%	-7	-3	7
CCOc1cc(NC(=S)NCc2ccco2)c(OCC)cc1NC(=O)CC	-1.2	-4%	-45	2	-15
COc1ccc(C(=O)Nc2c(O)ccc3ccccc23)cc1	-0.3	·	·	34	·
c1ccc2c(SCc3cn4ccccc4n3)nncc2c1	-2.1	-3%	·	0	-2
CC(C)C(=O)Nc1nnc(CSCc2ccccc2F)s1	1.1	-1%	-12	-6	1
Clc1cccc(OCCN2CCOCC2)c1	-2.0	-5%	-33	4	10
Cc1cccc(-n2c(SCC(N)=O)nc3c(c2=O)C2(CCCC2)Cc2ccccc2-3)c1	13	3%	10	5	-46
CC1=C(C#N)c2nc(N)c(C#N)c(C)c2/C1=C\c1ccc(C)cc1	33*	4%	0	-2	-10
O=C(CS(=O)(=O)c1c[nH]c2ccccc12)Nc1ccc2c(c1)OCCO2	4.9	-9%	-6	-4	-3	Arbovirus anti repeat=-2
C[C@@H]1CCC[C@@]2(O[C@@H](CCO)C[C@H](O)[C@H]2O)O1	-0.3	7%	·	3	·
Cc1c(CNCCCc2ccccc2)c(C(=O)O)c(C)n1Cc1ccccc1	0.8	-1%	·	-3	3
O=C(c1cc2nc(-c3ccc(F)cc3)cc(C(F)(F)F)n2n1)N1CCOCC1	-6.0	6%	-30	-2	8
O=C(CN1CCCc2ccccc21)N/N=C/c1c(O)ccc2ccccc12	7.0	-6%	-44	13	-17
C=CCN(C(=O)CCC(=O)Nc1cc(C)on1)C(C(=O)NC1CCCC1)c1ccc(OC)c(OC)c1 (centres undefined)	-2.7	·	·	-3	·
COc1ccccc1CCNC(=O)CN1C(=O)NC2(CCCC2)C1=O	0.6	·	·	-10	·
Cc1nc(C)c(C(=O)C2=C(O)C(=O)N(CCN(C)C)C2c2ccccc2)s1 (centres undefined)	-2.6	-9%	-39	-14	1
COc1cc(N(C)C)c(NC(C)=O)cc1C(=O)O	-2.0	-5%	2	-15	6
CCOc1ccc(NC(=O)c2nnn(CC(=O)Nc3ccccc3OCC)c2N)cc1	-1.4	2%	-38	7	1
N#Cc1nc(COc2ccc(F)cc2)oc1N1CCC(Cc2ccccc2)CC1	0.9	·	-5	9	10
O=C(CCn1c(=S)oc2ccccc21)Nc1ccccc1Br	0.0	·	·	-6	·
COc1ccc(S(=O)(=O)N[C@H](C(=O)O)C(C)C)cc1	-1.0	-13%	-33	-10	4

Gathered by group: the compounds so far containing a CF3 group
SMILES	RecA intein inh	Mtb H37Rv	YopH PTP inh	Mtb bLac sens	Arbovirus anti	others
FC(F)(F)c1cc(C(F)(F)F)c2ccc(Oc3ccccc3)nc2n1	1.4	-6%	-26	3	0
O=C(c1cc2nc(-c3ccc(F)cc3)cc(C(F)(F)F)n2n1)N1CCOCC1	-6.0	6%	-30	-2	8
